# A1 inh: inhibitors of the anti-apoptotic protein A1, read as caspase activation | MEF A1-2A-BIM cells, Caspase-Glo 3/7 luminescence, 3 h; percent of clofoctol response, vehicle zero | caspase activation, % (test concentration not listed) | hit rate 0.066% among 330,000 | AID 2462;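 active = over half of replicate activation scores above 10%, or exactly half above 10 with the replicate mean above 10; inconclusive = replicate mean below 10 yet half the replicates above 10; inactive = over half of replicates below 10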;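 note: wells of about 30 µL received 50 nL stock; many hits fall short of the cut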
# RanGTP-Impb inh: disruptors of Ran-importin-beta complex formation – biochemical, FRET, CFP-Ran, YFP-importin-beta, homogeneous, primary screen; AID 2216; hit rate 1.1% among 300,000; cell-free CFP-Ran/YFP-importin-beta FRET ratio; inhibition, % (concentration not given with the values);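 active = most replicates above 15%; inconclusive = exactly half above 15%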;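 note: 0% = DMSO wells and 100% = Ran loaded with GDP instead of GTP; wells of about 40 µL received 100 nL stock; the first replicate is given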
# Beta2AR agonist: human beta-2 adrenergic receptor agonism by FAP. P07550. Am2.2-beta2AR cells, FAP receptor internalization, flow cytometry; reference of the scale not given here. response, % (test concentration not listed). hit rate 0.43% among 340,000;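 active = response above a set limit, near 3 SD of response in nonfluorescent compounds, cut at about 42% in these data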;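 note: stock transfer was 100 nL into about 11 µL; a reference agonist was the positive control; negative values mostly stem from fluorescent compounds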
# Calb FLC: C. albicans growth modulation with fluconazole | C. albicans CaCi-2 (fluconazole-resistant clinical isolate) + fluconazole, Alamar Blue growth, 48 h | growth inhibition, % (test concentration not listed) | hit rate 0.57% among 300,000 | AID 1979;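 active = most replicates above 75%; inconclusive = exactly half above 75%; inactive = most below 75%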;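 note: all wells also contain fluconazole at 8 µg/ml as a sub-toxic cotreatment; 0% = median of DMSO wells and 100% = median of geldanamycin control wells; wells of about 8 µL received 7.5 nL stock; the first replicate is given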
# Beta apoptosis: blocks beta cell apoptosis | hit rate 0.8% among 300,000 | INS-1E cytokine-induced death, ATP luminescence, 48 h; percent of positive-control rescue, neutral wells zero | AID 435005 | protection from apoptosis, % (no concentration beside the values);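 active = all replicates at 75% or more, or half of them and the mean; inconclusive = half reach 75% but not the mean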;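 note: 0% = cytokine-treated negative control wells and 100% = positive control rescue; higher means more ATP so stronger rescue from cytokine killing; wells of about 40 µL received 100 nL stock; the first replicate is given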
# T cruzi inh: blocks replication of Trypanosoma cruzi | T. cruzi beta-gal in NIH3T3, luminescence, 90 h | inhibition, % (no concentration beside the values) | hit rate 1.4% among 300,000 | AID 1885;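 active = mean inhibition across valid replicates above about 55%, limit read from the data; inconclusive = mean below that limit but half or more replicates reach it; inactive = mean below it, under half of replicates reach it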;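 note: signal also drops with host cell toxicity which is not excluded here; 0% = plate median of DMSO wells and 100% = zero luminescence signal; higher percent means less beta-gal luminescence so fewer parasites; stock transfer was 50 nL into about 50 µL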
# UCH37 inh: blocks the human deubiquitinase UCH37 | purified proteasome/UCH37, Ub-AMC cleavage fluorescence | hit rate 0.33% among 330,000 | AID 588478 | Q9Y5K5 | inhibition, % (concentration not given with the values);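 active = mean of two replicates above 20%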;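 note: 0% = compound-free wells with enzyme and 100% = wells lacking proteasome; stock transfer was 100 nL into about 20 µL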
#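 Material: human UCH37 enzyme supplied as purified proteasome complex. Measure: % inhibition of Ub-AMC cleavage fluorescence. Medium: pH 7.4 Tris-HCl (50 mM) with ovalbumin, ATP-MgCl2, DTT. Times: 30 min preincubation with enzyme, 25 min cleavage at room temperature. Detection: AMC fluorescence intensity at 355/460 nm.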
# LANA-H2B inh: blocks KSHV LANA binding to histone H2A/H2B; Q9QR71; cell-free LANA-H2A/H2B peptide, fluorescence polarization; inhibition, % (concentration not given with the values); hit rate 0.6% among 320,000; AID 2629; in the data active = inhibition mostly above about 10%, no sharp cut-off; inactive = mostly below about 6.7%;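 note: stock transfer was 7.5 nL into about 10 µL; 0% = median of vehicle wells and 100% = median of positive control wells; one replicate is shown; the record names a cut of 25% in any replicate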
# Target sequence (Q9QR71 whole entry, looked up): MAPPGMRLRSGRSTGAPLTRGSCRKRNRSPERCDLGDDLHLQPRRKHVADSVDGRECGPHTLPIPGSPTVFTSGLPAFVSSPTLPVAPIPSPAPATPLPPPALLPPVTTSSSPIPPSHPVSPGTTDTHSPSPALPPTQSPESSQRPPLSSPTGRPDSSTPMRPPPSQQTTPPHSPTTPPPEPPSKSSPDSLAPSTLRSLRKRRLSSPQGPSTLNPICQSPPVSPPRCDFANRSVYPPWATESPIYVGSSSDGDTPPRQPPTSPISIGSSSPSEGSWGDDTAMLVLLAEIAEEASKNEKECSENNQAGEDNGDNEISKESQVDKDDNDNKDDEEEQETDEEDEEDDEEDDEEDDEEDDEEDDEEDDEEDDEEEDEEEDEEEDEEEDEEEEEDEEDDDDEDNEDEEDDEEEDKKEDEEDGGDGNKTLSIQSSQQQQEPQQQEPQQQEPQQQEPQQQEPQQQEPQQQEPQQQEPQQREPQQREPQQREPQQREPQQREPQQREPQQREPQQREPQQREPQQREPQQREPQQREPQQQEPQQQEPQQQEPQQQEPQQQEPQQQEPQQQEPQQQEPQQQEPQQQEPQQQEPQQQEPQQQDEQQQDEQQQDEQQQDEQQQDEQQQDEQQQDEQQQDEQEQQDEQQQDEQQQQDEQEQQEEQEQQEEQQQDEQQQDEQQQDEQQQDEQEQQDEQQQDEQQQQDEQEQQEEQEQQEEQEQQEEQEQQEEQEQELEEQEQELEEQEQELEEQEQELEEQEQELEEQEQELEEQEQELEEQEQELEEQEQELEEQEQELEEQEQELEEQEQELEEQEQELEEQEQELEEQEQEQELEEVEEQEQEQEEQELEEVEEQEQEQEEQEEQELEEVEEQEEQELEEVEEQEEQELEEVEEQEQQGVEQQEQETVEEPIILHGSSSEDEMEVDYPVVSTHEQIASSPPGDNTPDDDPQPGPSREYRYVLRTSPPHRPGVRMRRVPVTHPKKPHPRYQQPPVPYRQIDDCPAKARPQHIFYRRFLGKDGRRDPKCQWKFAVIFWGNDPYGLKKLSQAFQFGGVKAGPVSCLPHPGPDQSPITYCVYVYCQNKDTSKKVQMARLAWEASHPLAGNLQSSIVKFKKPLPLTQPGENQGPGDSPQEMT
# Active calls of the source: *; ? = inconclusive; · = no result given.
SMILES,A1 inh,RanGTP-Impb inh,Beta2AR agonist,Calb FLC,Beta apoptosis,T cruzi inh,UCH37 inh,LANA-H2B inh
COc1ccc(/C=N/NC(=O)CC(=O)NCc2cccnc2)cc1[N+](=O)[O-],0.4,0.7,3,-3,-2,-18,·,-4.2
COc1cccc(-c2cc(C(=O)NCCCN3CCOCC3)no2)c1,1.3,-2.1,8,18,2,-1,5.5,-3.6
CCN(CC(=O)NCc1ccc(F)cc1)C(=O)CCNS(=O)(=O)c1cccc(C)c1,0.5,·,9,·,-3,·,3.7,4.8
Cc1ccc(CN2C(=O)CCC2C(=O)N2CCN(c3ccccc3)CC2)cc1 (configuration not stated),0.7,0.6,2,-1,3,-9,5.0,5.9
O=S(=O)(/C=C/c1ccccc1)N1CCN(c2nc(-c3ccccc3)nc3ccccc23)CC1,0.8,2.6,-10,1,11,9,4.8,-12
O=C(Nc1ccc(C(F)(F)F)cc1)N1CCN(C(=O)c2ccco2)CC1,-0.8,2.4,1,5,0,0,-0.1,-0.5
O=S(=O)(NCCc1ccccc1)c1cccc(S(=O)(=O)N2CCOCC2)c1,1.0,1.9,5,31,0,-1,-0.8,0.7
Nn1c(SCC(=O)Nc2ccc(F)cc2)nnc1-c1cccnc1,1.2,-2.8,-2,-5,-7,0,6.2,-1.1
COc1ccc(/C=N/NC(=O)c2cccnc2)cc1CN1CCOCC1,-0.5,-2.5,0,-2,-3,6,·,-2.0
Cc1c(N/C(=N/S(=O)(=O)c2cc([N+](=O)[O-])ccc2Cl)c2ccccc2)c(=O)n(-c2ccccc2)n1C,0.1,3.1,-2,-2,-1,3,-1.6,-1.5
COc1ccc(/C=C/C(=O)Nc2cccc(S(=O)(=O)NC3=NCCCCC3)c2)cc1,-1.1,-1.9,2,-3,-2,-6,5.0,-3.5
CCOc1ccc(N(CC(=O)N2CCN(c3ccc(F)cc3)CC2)S(=O)(=O)c2c(C)noc2C)cc1,0.0,-2.9,5,14,-4,21,5.9,0.9
O=C(C1=C[C@H](c2csc3ccccc23)C[C@H](OCc2ccc(CO)cc2)O1)N1CCN(Cc2ccccc2)CC1,-0.2,?,19,1,8,47,0.3,-5.0
C[C@H](CO)N1C[C@H](C)[C@@H](CN(C)Cc2ccccc2)Oc2c(NC(=O)C3CCCCC3)cccc2C1=O,-0.5,·,7,·,-13,·,1.2,0.1
CC(=O)Nc1ccc(CN2CCCC(C(=O)c3ccc(C(F)(F)F)cc3)C2)cc1 (configuration not stated),0.5,4.9,3,-20,0,3,1.5,0.9
O=C(NC(=S)NC1CCS(=O)(=O)C1)c1ccccc1Br (configuration not stated),0.0,-2.1,6,12,1,4,5.2,2.6
Cn1/c(=N/N=C/c2ccc(N3CCOCC3)cc2)sc2ccccc21,-1.0,-4.1,3,10,-3,-1,·,3.7
N#Cc1ccc(S(=O)(=O)N2CCN(CC(=O)Nc3ccccc3C(=O)NC3CC3)CC2)cc1,0.0,·,5,·,0,·,1.6,11
COc1cccc(NC(=O)N2CCN(C(=O)C(Cc3ccc(OC)c(OC)c3)NC(C)=O)CC2)c1 (configuration not stated),0.2,-1.4,-5,-1,-6,·,2.9,-2.8
CCc1ccc(S(=O)(=O)Nc2cc3c(cc2C)n(C)c(=O)n3C)cc1,0.7,2.8,-9,23,56,-39,1.0,0.1

# Entries of single compounds, looked up by structure.
# O=S(=O)(/C=C/c1ccccc1)N1CCN(c2nc(-c3ccccc3)nc3ccccc23)CC1 in the list: A1 inh = 0.8; RanGTP-Impb inh = 2.6; Beta2AR agonist = -10; Calb FLC = 1; Beta apoptosis = 11; T cruzi inh = 9; UCH37 inh = 4.8; LANA-H2B inh = -12
# C[C@H](CO)N1C[C@H](C)[C@@H](CN(C)Cc2ccccc2)Oc2c(NC(=O)C3CCCCC3)cccc2C1=O in the list: A1 inh = -0.5; RanGTP-Impb inh = ·; Beta2AR agonist = 7; Calb FLC = ·; Beta apoptosis = -13; T cruzi inh = ·; UCH37 inh = 1.2; LANA-H2B inh = 0.1

# As entered above.
# Reading for `Cc1ccc(CN2C(=O)CCC2C(=O)N2CCN(c3ccccc3)CC2)cc1` (configuration not stated) under Beta apoptosis: 3
# Reading for `COc1ccc(/C=C/C(=O)Nc2cccc(S(=O)(=O)NC3=NCCCCC3)c2)cc1` under Calb FLC: -3

# New compounds follow
SMILES,A1 inh,RanGTP-Impb inh,Beta2AR agonist,Calb FLC,Beta apoptosis,T cruzi inh,UCH37 inh,LANA-H2B inh
COc1ccccc1-c1nn2c(C(F)(F)F)nnc2s1,-0.2,5.2,-2,6,1,-5,-29,0.3
Cc1nn2c(=O)nc3sc4c(c3c2[nH]c1=O)CCCC4,0.6,2.3,·,4,-23,-17,14,-2.3
CN(CC(=O)Nc1ccc(Cl)c(C(F)(F)F)c1)C(=O)/C=C/c1cccs1,-0.3,·,2,·,-4,·,1.8,-4.3
COc1ccc(CCNC(=O)CSc2nc(C)nc3c2c(=O)n(C)c(=O)n3C)cc1OC,-0.4,3.1,-4,2,1,0,3.3,-4.5
CCOC(=O)c1c(C)[nH]c(C)c1C(=O)CSc1nc2ccccc2n1CC,1.2,1.4,-4,30,0,-1,2.5,1.0
O=C(O)c1ccc2cc[nH]c2c1,-1.0,0.0,2,-3,-4,-2,0.9,2.2
CCC(Sc1nc2ccccc2[nH]1)C(=O)Nc1cc(C)on1 (configuration not stated),0.9,0.6,3,-14,-7,8,0.6,6.0
CCOc1cc(C2C3=C(CCCC3=O)NC3=C2C(=O)CCC3)ccc1OCCO,0.8,1.1,3,0,3,-8,2.4,12
COc1ccc(/C=C/C(=O)NCCNC(=O)c2ccccc2)cc1OC,0.9,5.5,4,33,-7,7,-8.8,-0.3
O=C(Nc1cccc(Cl)c1)C1=Cc2cc(Cl)ccc2OC1,0.5,4.1,-6,-10,-2,0,-5.2,1.6
COCCCn1c(=O)c2sccc2n2c(CCCC(=O)NCc3cccc(OC)c3)nnc12,2.3,2.1,-12,1,-2,-15,3.4,-2.5
Cc1cc(=O)[nH]c(SCc2nc3ccccc3s2)n1,-2.4,2.6,1,1,-4,-8,1.7,1.8
O=C(c1ccncc1)c1ccc(NS(=O)(=O)c2ccc(Br)s2)cc1,-0.3,2.4,-8,22,6,-10,14,9.4
O=c1ccc2[n+]([O-])c3ccc(O)cc3oc-2c1,·,?,4,-18,·,51,7.2,·
CC1(C)CCC[C@]2(C)[C@H]3CC(=O)O[C@]3(C)CC[C@@H]12,0.8,21*,-7,-3,-7,8,1.7,1.2
CSc1ccc(CN(C)C(=O)C2CCN(C(=O)Nc3ccccc3)CC2)cc1,-1.4,·,0,·,5,·,1.4,-1.8
CC(OC(=O)c1ccc(Cl)c(S(N)(=O)=O)c1)C(=O)NCC1CCCCC1 (configuration not stated),-0.4,·,-11,·,0,·,-1.8,-2.6
O=C(NCCc1ccccc1)C1CCN(C2CCN(Cc3ccc(CO)o3)CC2)CC1,-1.3,2.8,4,1,-3,-23,3.2,-4.3
Nc1ccc(NC(=O)NC2CCCCC2)cc1,-0.2,1.4,-1,17,3,2,4.8,9.6
O=C(C[n+]1ccc(Cc2ccccc2)cc1)Nc1ccc([N+](=O)[O-])cc1Cl,0.0,-1.1,0,19,-6,6,·,3.8
CCC(=O)N1CCc2cc(S(=O)(=O)NC(C(=O)NCc3ccc(F)cc3)C(C)C)ccc21 (configuration not stated),0.5,-1.2,-8,-2,-7,13,5.3,2.2
COc1ccc(S(=O)(=O)NNC(=O)c2cc3cc4ccccc4nc3s2)cc1,0.6,-4.6,1,-6,3,16,-1.5,-3.0
COc1ccccc1N1CCN(C2CCN(C(=O)c3cc(OC)c(OC)c(OC)c3)CC2)CC1,-0.6,6.7,0,-4,-4,-10,2.1,0.0
N#Cc1nc(COc2ccccc2)oc1N1CCOCC1,-1.5,3.2,-1,-1,-2,3,4.2,0.1
Cc1cccc(OCC(=O)Nc2c3c(nn2C(C)(C)C)CS(=O)(=O)C3)c1,-0.3,-0.6,-1,2,-12,-8,0.0,-2.6
COc1cccc(-n2c(SCC(=O)N3CCOCC3)nnc2-c2c[nH]c3ccccc23)c1,0.1,0.8,-5,5,8,0,5.8,-0.7
CC(=O)Nc1ccc(-c2nnn(CC(=O)c3ccccc3)n2)cc1Cl,0.1,-0.6,12,2,-3,15,2.9,-9.1
O=CNNC(=O)c1cccc([N+](=O)[O-])c1,0.4,1.6,13,?,0,-12,0.4,2.7
Cc1ccccc1N(C(=O)Cc1ccsc1)C(C(=O)NC1CCCCC1)c1ccc(F)cc1 (configuration not stated),0.4,?,7,-1,-8,6,1.1,-0.8
Cc1ccccc1CNC(=O)Cn1ccc2cc(S(=O)(=O)N3CCCCCC3)ccc21,1.1,-5.6,26,-16,6,-11,2.5,2.3
S=C(Cc1ccc(-c2ccccc2)cc1)N1CCOCC1,-0.3,0.7,-9,-1,-9,-9,3.7,3.4
Fc1ccc(OCc2nc(-c3ccc(Br)o3)no2)c(F)c1,0.6,3.8,-1,-7,·,-6,5.4,-2.8
O=C(CCCN1C(=O)S/C(=C/C=C/c2ccccc2)C1=O)Nc1ccc(C(=O)O)cc1,-0.5,-1.5,3,-25,-8,-27,15,8.8
O=C(NNC(=O)c1cc2cc(OC(F)(F)F)ccc2[nH]1)c1ccc(Cl)cc1,0.0,-3.1,2,-8,4,1,4.1,2.5
COCCn1cnc2c1c(=O)n(Cc1ccc(Br)cc1)c(=O)n2Cc1ccccc1,-0.4,2.1,-4,-4,-4,20,3.7,-4.3
CCC(C)(C)NC(=O)C(c1ccccn1)N(C(=O)c1csnn1)c1ccccc1 (configuration not stated),-0.3,2.0,2,-6,0,-42,1.4,-4.1
Cc1ccc(-n2nc3c(N4CCC(C(=O)NCc5cccc(F)c5)CC4)nnc(C)c3c2C)cc1,0.1,?,14,6,13,25,-17,-5.4
Cc1csc(NC(=O)CSc2nc3[nH]ncc3c(=O)[nH]2)n1,0.7,-8.5,0,-18,-1,-6,3.9,-4.4
CN(C)c1ccc(NC(=O)Cn2cc3c(n2)CCCC3)cc1,1.0,-2.4,0,-7,40,47,7.2,0.6
CN(C(=O)c1ccc(NC(=O)Cc2cccc([N+](=O)[O-])c2)cc1)C1CCCC1,-0.1,·,4,·,-14,·,0.4,1.9
C/C(=N\Nc1ccccn1)c1ccc(S(=O)(=O)NCc2ccco2)cc1,-0.7,3.4,-4,0,21,-9,·,0.6
CCN(CC)C(=O)N1CCN(S(=O)(=O)c2ccccc2)CC1,0.3,-11,8,0,-5,-13,-1.0,4.3
CCCSc1nc(N2CCCC2)c2c(c1C#N)CC(C)(C)OC2,0.1,3.9,5,37,5,25,0.5,7.3
Cc1cc(NC(=O)CSc2nnnn2Cc2ccccc2)no1,-0.2,0.0,-3,13,3,-15,1.1,-3.2
COc1ccc(NS(=O)(=O)c2cccc(C(=O)NCc3ccccc3CN3CCCC3)c2)cc1,-0.3,·,15,·,19,·,0.8,1.8
